TRPML1 agonist: activates the human TRPML1 channel | Q9GZU1 | TRPML1-expressing cells, Ca2+ dye fluorescence, FDSS; host cell line not named in the record; reference of the full effect not given here | activation, % (test concentration not listed) | actives 0.12% (n = 410,000); in the data active = activation above about 50%; inconclusive = about 30% to 50%; inactive = below about 30%; further: 0% is about no effect; the text of the record puts the active cut at 80%
Target sequence (Q9GZU1 whole entry, looked up): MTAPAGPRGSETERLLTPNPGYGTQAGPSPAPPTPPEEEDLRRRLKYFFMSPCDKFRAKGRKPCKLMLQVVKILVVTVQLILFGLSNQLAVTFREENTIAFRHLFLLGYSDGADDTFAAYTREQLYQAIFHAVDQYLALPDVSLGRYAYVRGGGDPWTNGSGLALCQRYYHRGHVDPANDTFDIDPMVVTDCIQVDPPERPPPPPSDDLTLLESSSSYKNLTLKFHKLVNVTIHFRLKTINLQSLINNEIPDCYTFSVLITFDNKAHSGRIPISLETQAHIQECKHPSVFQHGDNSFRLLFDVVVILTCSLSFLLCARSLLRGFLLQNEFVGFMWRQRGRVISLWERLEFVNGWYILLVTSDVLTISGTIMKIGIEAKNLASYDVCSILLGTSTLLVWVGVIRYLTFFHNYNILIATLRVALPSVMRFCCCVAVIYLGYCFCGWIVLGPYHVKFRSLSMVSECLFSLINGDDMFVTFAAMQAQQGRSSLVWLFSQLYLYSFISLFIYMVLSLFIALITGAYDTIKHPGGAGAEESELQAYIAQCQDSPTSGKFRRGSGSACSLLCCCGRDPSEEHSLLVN
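Tet-induced TRPML1-DL cells, 1,500 per well, cultured overnight, were loaded with a no-wash Ca2+ dye for 45–90 min. Calcium fluorescence was recorded on the FDSS for 110 s after compound addition, before the EC80 agonist (4 uM 54-4) was added.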
gsp agonist: agonists of gsp mutant (McCune-Albright syndrome); gsp mutant cells, cAMP HTRF, 30 min; control for the full effect not named in the record; AID 624287; Potency, µM (series often up to 76.9 µM), inactives show at the highest dose activation (cAMP increase), actives largely listed as activators; actives 0.13% (n = 340,000); active = well fitted activation curve with a large enough effect; inconclusive = small, poorly fitted or top-dose-only effect, or another doubt; inactive = no such curve, though single readings can be large or run the other way; cell line not stated here;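 further: phosphodiesterase inhibitor Ro 20-1724 added with compounds to block cAMP breakdown; potency means the concentration at half of the fitted maximal effect; nearly all actives have a fitted effect of over 60% in size; about a fifth of the inactives were tested at one dose only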
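Cells stably selected in G418 were plated at 2000/well, grown 16-24 hr, then given compounds in DMSO with the PDE inhibitor […] (300 uM solution added) for 30 min at 37C; cAMP was read by HTRF.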
gsp antagonist: antagonizes gsp, the McCune-Albright syndrome mutation | Potency, µM (titrated, usually from 76.9 µM), inactives show at the highest dose activity change, negative = inhibition, hits mostly inhibitors | gsp-mutant cells, cAMP HTRF, 30 min; control for the full effect not named in the record | AID 624288 | actives 0.4% (n = 340,000); active = falling curve of any shape with a large fitted effect; inconclusive = falling curve, mostly with a smaller effect; inactive = flat or rising curve; cell line not stated here;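 further: intracellular cAMP measured with PDE inhibitor Ro 20-1724 present during compound exposure; potency means the concentration at half of the fitted maximal effect; on the % scale 0 is the no-effect control and ±100 the full control effect; nearly all actives have a fitted effect of over 65% in size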
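Measurement of cellular cAMP by homogeneous time-resolved fluorescence following a 30 min compound exposure at 37C. The PDE inhibitor […] was present throughout; the assay buffer was DPBS with 0.05% BSA and 0.005% Tween 20.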
Menin MLL FP FL: displaces fluorescein MLL peptide from human menin; 290,000 tested, under 10 active; FP activity change, % at 61.4 µM; Fluorescence polarization, fluorescein-MLL peptide displacement from menin; AID 1766; inconclusive = falling polarisation curve, or a change in total fluorescence; inactive = total fluorescence flat and polarisation flat or rising; no compound was filed as active; the % refers to the polarisation; negative = inhibition;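 further: % of control where 0% means no effect; inhibitors lower the polarisation; unlabelled MLL peptide was the positive control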
TRPML1 inh: blocks the human TRPML1 channel. Q9GZU1. TRPML1-inducible cells, Ca2+ dye fluorescence, FDSS; stronger effect = lower value; inhibition of EC80 agonist-evoked calcium signal. activity change, negative = inhibition, % (no concentration beside the values). actives 0.02% (n = 390,000); in the data active means activity change below about -50%; inconclusive means about -30% to -50%; inactive means above about -30%;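 further: stimulus is agonist 54-4 at its EC80 concentration; on the % scale 0 is the no-effect control and ±100 the full control effect; compound concentration not given in the record; the text of the record puts the active cut at -80%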
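Tet-induced TRPML1-DL cells loaded with Ca8 no-wash calcium dye were read kinetically on FDSS. Compound addition was followed by EC80 agonist 54-4 (4 uM final); inhibition was read over 110 s.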
ClpP mod: qHTS Assay for Activators of ClpP; Potency, µM (doses to about 57.5 µM), for the others: at the highest dose activity change, negative = active; actives 1.9% (n = 340,000); AID 651965, 2013; purified B. subtilis ClpP, FRET peptide cleavage, 20 min; active = well fitted falling curve with a large enough effect; inconclusive = small, poorly fitted or top-dose-only effect; inactive = no such curve, though single readings can be large or run the other way; further: potency means the concentration at half of the fitted maximal effect; the source files actives as falling curves though it sought activators and does not explain the sign; nearly all actives have a fitted effect of over 65% in size; many hits overshoot -100%
Target sequence (P80244 whole entry, looked up): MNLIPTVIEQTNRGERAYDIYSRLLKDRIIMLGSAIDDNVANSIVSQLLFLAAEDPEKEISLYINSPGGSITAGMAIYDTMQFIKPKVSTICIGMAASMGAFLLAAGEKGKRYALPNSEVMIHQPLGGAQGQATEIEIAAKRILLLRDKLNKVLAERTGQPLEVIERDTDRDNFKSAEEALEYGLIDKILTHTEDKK
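ClpP 10 microg/mL final, pH 8 Tris/KCl buffer with BSA, glycerol, Tween-20; compound pinned in; FRET-FV substrate; RT 20 min; Ex320/Em430; ΔFRET vs ADEP 5.8 microM, DMSO, no enzyme.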
* marks the source's active call; other numbers are inactive results; ? = inconclusive; nt = not tested or not shown; [ ] = remark or other dose.

Compound,TRPML1 agonist,gsp agonist,gsp antagonist,Menin MLL FP FL,TRPML1 inh,ClpP mod
Cc1ccc(SCCCCN2C(=O)NC(C)(C)C2=O)cc1,0.5,-0.5%,-10.0%,-2.4,6.9,-0.2%
CCOc1ccc(N(CC(=O)NCc2ccc(F)cc2)C(=O)c2snc(C(N)=O)c2N)cc1,0.1,4.3%[15.4 µM],nt,3.0,4.6,nt
O=C(NCc1ccc(F)cc1)C(=O)NCC(c1ccc2c(c1)OCO2)N1CCOCC1 (stereo not drawn),0.4,nt,nt,nt,-18.7,0.2%
CCCCn1c(SCc2nnc(-c3ccccc3)o2)nc2c1c(=O)n(C)c(=O)n2C,0.4,?,?,-1.8,-8.7,-7.6%
C[C@H]1CN([C@@H](C)CO)C(=O)c2c(c3ccccc3n2C)-c2ccccc2CO[C@H]1CN(C)Cc1cccc(F)c1,1.1,2.0%,nt,nt,15.0,0.4%
CC(=O)c1ccccc1OCCOc1ccccc1C(C)=O,0.9,-1.0%,-4.4%,-1.1,-4.5,-13.3%
CC(OC(=O)CN1C(=O)NC2(CCCC2)C1=O)c1ccc(F)cc1 (stereo not drawn),-0.2,-45.8%[inhibitor],11.3%,nt,-3.9,-2.5%
Cc1nc2ccc(C(=O)OCc3nnc(-c4ccccc4)o3)cc2nc1C,-0.1,0.6%,-10.4%,3.3,-3.5,2.2%
NC(=O)COC(=O)c1ccc(S(=O)(=O)NCc2ccco2)cc1,-0.5,-1.8%[15.4 µM],-30.7%,0.8,-11.7,nt
O=C(Cc1cccs1)NCc1ccccc1Br,1.0,0.4%,-1.5%,5.5,-11.2,-0.4%
O=C(NCCN1C(=O)S/C(=C\c2ccc(Cl)c(Cl)c2)C1=O)c1ccc2c(c1)C(=O)N(Cc1ccncc1)C2=O,0.7,3.4%[15.4 µM],-21.1%,7.7,-11.2,-5.7%
COCCCNC(=O)Cn1cnc2c(OCc3ccccc3)ncnc21,0.2,nt,6.0%,nt,18.9,-1.6%
Cc1nc(N)nc(N)c1Oc1ccc(Cl)cc1,1.6,-3.2%,3.1%,nt,23.0,nt
CC(=O)NCCc1nc2cc(NC(=O)c3cccs3)ccc2n1C,-0.4,-2.9%[15.4 µM],20.1%,-6.0,-16.4,0.1%
O=C(/C=C/c1ccccc1[N+](=O)[O-])OCC(=O)c1ccccc1,0.0,4.2%[15.4 µM],0.7%,0.3,31.1,0.9%
COc1ccc(-c2csc(N(CCCN(C)C)C(=O)c3ccccc3Cl)n2)cc1,0.1,36.1%,20.4%,nt,5.4,nt
COCC(=O)Nc1c(C(=O)N2CCCC2)oc2ccccc12,0.1,0.6%,2.5%,1.2,-17.8,nt
CC1O[C@@H](O[C@H](C)CC[C@@H](C)O[C@H]2OC(C)[C@@H](O)C[C@H]2O)C(O)C[C@H]1O (stereo partly drawn),-0.8,nt,2.4%,nt,-8.0,-0.8%
O=S(=O)(Nc1ccc(S(=O)(=O)Nc2ncccn2)cc1)c1ccc(Cl)cc1,0.3,-3.1%,6.6%,-2.7,23.8,nt
COc1ccc(OCC(=O)N2CCN(C(=O)c3cccc4ccccc34)CC2)cc1,1.0,14.9%,-6.0%,2.4,10.2,3.2%
COC(=O)c1c(C)[nH]c(C(=O)/C=C/c2cccc(Cl)c2)c1C,0.5,14.2%[15.4 µM],-7.3%,-2.1,-3.2,-6.4%
O=C(NCC1(N2CCCCC2)CCCCC1)c1ccc(NS(=O)(=O)c2ccccc2)cc1,-0.7,3.6%,13.6%,nt,-7.7,-4.0%
COc1ccc(/C=C/C(=O)OCC(=O)Nc2cc(S(=O)(=O)N(C)C)ccc2Cl)cc1,-0.3,?,3.6%,0.0,-8.4,nt
O=C(Nc1cccc(S(=O)(=O)NC2=NCCC2)c1)c1ccccc1F,-0.1,8.7%[15.4 µM],3.0%,nt,28.0,nt
CCn1c2ccccc2c2cc(CN3CCN(S(C)(=O)=O)CC3)ccc21,0.9,1.1%,-2.2%,-1.6,24.7,-17.1%
CCc1ccc(CN2CCN(C(=O)c3cccc(OC)c3OC)CC2)cc1,-0.5,1.0%,-17.2%,-4.4,3.3,0.6%
CCC(OC(=O)CCc1nc2ccccc2[nH]c1=O)C(=O)c1ccccc1 (stereo not drawn),2.4,-44.2%[inhibitor],?,-1.7,12.4,?
CCc1cc(=O)oc2c(C)c(OC(C)C(=O)N3CC[C@@]4(O)CCCC[C@H]4C3)ccc12 (stereo partly drawn),nt,nt,-9.3%,0.9,nt,4.8%
COc1cc(NC(=O)COC(=O)/C=C/c2c(C)nn(-c3ccc(F)cc3)c2Cl)cc(OC)c1,-0.5,17.3%,-1.8%,4.9,6.7,nt
CC1(c2nnc(Cc3ccccc3)o2)CC(c2ccccc2[N+](=O)[O-])=NO1 (stereo not drawn),0.2,nt,-4.8%,nt,6.1,-0.9%
CCn1ccc2cc(S(=O)(=O)N3CCC(C(=O)NCc4ccc(F)cc4)CC3)ccc21,2.1,nt,nt,nt,17.8,-5.8%
CCOc1cc(C2NC(=O)c3ccccc3O2)ccc1OC (stereo not drawn),-1.1,3.3%[15.4 µM],12.4%,4.4,-17.7,0.5%
CC(=O)N(C)C[C@@H]1Oc2ncc(Br)cc2C(=O)N([C@H](C)CO)C[C@@H]1C,-0.3,27.9%,nt,nt,18.9,1.1%
COc1cccc([C@@H]2CC=C(C(=O)O)CN2S(=O)(=O)c2ccc(C)cc2)c1,-0.1,-22.3%,-8.9%,nt,0.7,-1.6%
CCCCNC(=O)c1ccccc1NS(=O)(=O)c1ccc2c(c1)OCCO2,-0.3,-114.8%[inhibitor],?,2.9,19.8,?
CC1(C)CC(=O)C2=C(C1)Oc1ncn(CCO)c(=N)c1C2c1ccccc1 (stereo not drawn),0.3,15.0%,5.2%,-1.2,0.9,-1.6%
CCOc1ccc(CCNC(=O)c2cc([N+](=O)[O-])ccc2N2CCOCC2)cc1OCC,-0.2,-21.5%,-13.5%,0.1,9.9,2.1%
CCNc1ccc(C(=O)OC(C(=O)NC(N)=O)C(C)C)cc1[N+](=O)[O-] (stereo not drawn),-0.5,-5.8%[15.4 µM],10.7%,0.1,-8.0,nt
O=C(c1cc2ccccc2o1)N1CCN(S(=O)(=O)c2ccc(Cl)s2)CC1,1.0,-47.7%[inhibitor],-29.2%,nt,-1.9,2.0%
COc1ccc(N2CCN(S(=O)(=O)c3ccc(OC)cc3)CC2)cc1,-0.3,-7.6%,2.0%,-0.1,-4.4,-0.6%
Cc1ccc(CSc2c(C)cnc3c2c(=O)n(C)c(=O)n3C)cc1,0.9,nt,nt,nt,38.2,2.0%
Cc1c(Cl)cccc1NC(=O)COC(=O)c1ccc(CN2CCCC2=O)cc1,2.3,3.3%,3.0%,nt,-9.5,-1.1%
O=[N+]([O-])c1ccc(CN2CCN(c3ncccn3)CC2)cc1,0.1,15.9%,13.6%,0.1,-26.5,-4.0%
Cc1ccsc1C(C(=O)NC1CCCCC1)N(C(=O)c1csnn1)C1CC1 (stereo not drawn),1.6,-26.8%,4.3%,5.0,-1.3,-0.5%
CC(=O)C[C@@H](O)CC(=O)[C@@H]1OC(=O)[C@H](C)CCCCc2ccccc21,0.1,nt,3.4%,nt,-11.8,0.6%
CCOC(=O)n1n[n+]([O-])c2ccccc21,0.1,-58.7%[inhibitor],9.0%,6.6,-6.2,-4.4%
COc1cc(/C=N/Nc2cc(C)nc(N)n2)ccc1O,-1.5,-6.2%[15.4 µM],-17.7%,6.6,-7.4,-0.5%
COc1ccc(CC(=O)Nc2ccc(F)c(S(=O)(=O)N3CCOCC3)c2)cc1,-0.4,-11.0%[15.4 µM],9.4%,nt,16.8,nt
CCOC(=O)Cc1csc(NC(=O)c2csc(C)c2)n1,0.2,4.7%,-10.8%,-3.7,13.3,-0.1%
CCC(CC)c1ncc[nH]1,-0.3,35.1%,0.6%,-8.2,0.0,2.9%
O=[N+]([O-])c1cc(C(F)(F)F)ccc1Sc1nccn1Cc1ccccc1,-0.3,-2.6%,0.8%,-6.8,3.8,0.2%
Cc1cccc(-c2ncc(CN3CCCC(CO)(Cc4ccccc4C)C3)cn2)c1 (stereo not drawn),2.7,-132.9%[inhibitor],-9.2%,?,26.1,0.5%
O=C(NCCN1CCN(c2ccccc2)CC1)c1ccc(NC(=O)C2CCCO2)cc1 (stereo not drawn),0.4,21.4%,0.3%,0.6,-12.6,1.1%
Cc1ccc(OCCCCn2ccnc2)c(Cl)c1,0.5,-2.3%,-3.2%,-1.6,0.6,-0.5%
CN(CC(=O)Nc1ccc(Cl)c(C(F)(F)F)c1)S(=O)(=O)c1cnc[nH]1,0.0,-28.5%,nt,nt,1.9,-1.8%
CCOc1ccccc1NC(=O)CCN(c1ccc(C)cc1)S(=O)(=O)c1ccccc1,1.6,0.1%,-4.1%,3.2,-2.3,1.4%

The list goes on.
Compound,TRPML1 agonist,gsp agonist,gsp antagonist,Menin MLL FP FL,TRPML1 inh,ClpP mod
Cc1ccccc1N1CCN(C2CCCN(C(=O)c3ccsc3)C2)CC1 (stereo not drawn),-0.4,-2.6%[15.4 µM],2.3%,nt,22.2,1.6%
Cc1ccsc1C(=O)NCc1ccc(F)cc1,0.1,-1.3%,7.9%,3.4,-8.3,nt
Cc1ccccc1Cc1c(C)nc2nc(SCC(=O)NCCCN3CCCCC3)nn2c1C,0.5,0.9%,9.3%,-4.1,-0.6,nt
N#C/C(=C\c1ccc(OCc2ccc(C(=O)O)cc2)cc1)C(=O)NCc1ccccc1,0.6,?,-29.9%,0.3,-8.5,nt
Cc1c(-c2ccccc2)c(=O)oc2c(CN3CCOCC3)c(O)ccc12,-0.6,nt,nt,nt,-2.3,4.8%
COc1ccccc1NC(=O)N(Cc1cccs1)Cc1cc2cc3c(cc2[nH]c1=O)OCO3,2.5,9.7%,-1.8%,-2.0,-12.3,?
O=C(NCc1ccccc1Cl)c1ccc2oc(=O)n(Cc3ccccc3)c2c1,2.1,nt,nt,nt,1.9,-0.6%
Fc1ccc(CNC(=S)Nc2ccccc2Cl)cc1,1.3,-2.7%,-1.9%,-0.4,-13.7,-0.6%
